Screening results from PubChem BioAssay.
E coli growth – E. coli growth inhibition, primary screen, OD600; OD600 absorbance (test concentration not listed); 330,000 tested, 0.21% active; Escherichia coli growth, 23 h; active compounds read low;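 active = OD600 absorbance below the run mean of sample wells minus 3.6 SD, in any replicate, cut at about 0.56 in these data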;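 also: stock transfer was 300 nL into about 60 µL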
Vif TR-FRET – inhibitors of Vif binding to APOBEC3G peptide, primary screen, biochemical, TR-FRET, GST-Vif 1-94, biotin-A3G peptide, dose response retest (AID 1117319); one-dose inhibition, %; IC50 in µM for titrated hits; 260,000 tested, 0.57% active; Virion infectivity factor (Human immunodeficiency virus type 1 group M subtype B (isolate …; TR-FRET GST-Vif / biotin-A3G peptide binding; higher % means a stronger effect; test concentration not given here; strong numbers were not always called active;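 active = above the screen mean plus three standard deviations and confirmed in dose response; inconclusive = results disagree or hit not tested in dose response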;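 also: Vif residues 1-94 fused to GST binding biotinylated APOBEC3G peptide 110-148; 0% = full assay without inhibitor and 100% = GST in place of GST-Vif; retest series ran down from 100 µM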
* marks the source's active call; other numbers are inactive results; u = inconclusive; x = not tested or not shown; & = joins results of further samples. These rows are one share of the data, so the mix of outcomes need not match the whole.

compound	E coli growth	Vif TR-FRET
CCOC(=O)C(CCc1ccccc1)NC(C)C(=O)N1CCCC1C(=O)O (configuration not stated)	0.63&0.67&0.71	x
CCCCCC(=O)N1CC2(CC(c3cccc(NC(=O)C4CCC(=O)N4)c3)=NO2)CC1C(N)=O (configuration not stated)	0.68	x
CCCCCC1CN(Cc2ccc(OC)cc2)C(=O)C1CC(=O)NCc1ccccc1 (configuration not stated)	0.68	x
O=C1N=C(N2CCN(c3ccccc3)CC2)SC1=Cc1ccco1	0.68	x
C=C1CCN(C(C(=O)O)C(C)C)S(=O)(=O)c2ccccc21 (configuration not stated)	0.7	x
COc1ccc(-c2cc3ccccc3s2)cc1C1C2C=CCC(C)C2C(=O)N1Cc1ccccc1 (configuration not stated)	0.73	x
CC(NC(=O)c1nc[nH]c1C(=O)NCc1ccc(CNC(=O)OC(C)(C)C)cc1)C(=O)OCc1ccccc1 (configuration not stated)	0.73	x
CCN1C(=O)C2C(c3ccc(-c4ccc(C(C)=O)cc4)c(OC)c3)N3CCCC[C@@]3(C(=O)OC)C2C1=O (some centres not stated)	0.73&0.69	x
O=S1(=O)CCOCC(Cc2ccccc2)N1Cc1cccc(C(F)(F)F)c1 (configuration not stated)	0.69	x
OC1OC(c2ccc3c(c2)OCO3)C2COC(c3ccc4c(c3)OCO4)C12 (configuration not stated)	0.69	x
O=C(CC1CC=CCCC(=O)OCC2CCCN2C1=O)NCCO (configuration not stated)	0.71&0.7	x
O=C1C(Cc2ccccc2)NCCCCC(c2ccc(Cl)cc2)N1Cc1ccccc1 (configuration not stated)	0.6&0.72	x
N#CCC(=O)N1CC2(CC(c3cccc(NC(=O)COc4ccc(Cl)cc4)c3)=NO2)CC1C(N)=O (configuration not stated)	0.7	x
CCCCCCSc1ccc(C2N[C@@](CC(C)C)(C(=O)OC)C3C(=O)N(CC)C(=O)C23)cc1 (some centres not stated)	0.66	x
C#CCOCCOCCOCCNc1nc(N2CCN(C(=O)C(C)n3cc(CCCN=C(N)N)nn3)CC2)nc(N2CCN(C(=O)C(C(C)O)n3cc(CCCCN)nn3)CC2)n1 (configuration not stated)	0.72	x
COc1ccc(C2C=CCN(Cc3ccncc3)CC(=O)N2Cc2ccc(F)cc2)cc1 (configuration not stated)	0.72	x
O=S(=O)(Nc1ccc2nc(-c3ccc(Br)o3)[nH]c2c1)c1ccccc1	x	-3%
O=C(/C=C/c1ccc(Cl)cc1)N1CCN(c2ncccn2)CC1	x	6%
CC12CC(NC(=O)N1c1ccc(C(=O)N3CCN(c4ccccn4)CC3)cc1)c1ccccc1O2 (configuration not stated)	x	-4%
Cc1ccc(S(=O)(=O)Nc2cccc(C(=O)Nc3cc(C)ccn3)c2)cc1	x	15%

(list continues)
compound	E coli growth	Vif TR-FRET
Cc1ccccc1NC(=O)c1cnc(Nc2nc3ccccc3s2)nc1C	x	0%
CC(C)c1ccc(S(=O)(=O)/N=C2/C=CC(=O)c3ccccc32)cc1	x	5.4µM*
COc1ccc(N2CCN(c3nc(Nc4ccc(F)cc4)nc(OC)n3)CC2)cc1	x	4%
CCn1cnc2sc(C)c(C)c2c1=O	x	-7%
Cc1cc2c(nc1C)CCCN2C[C@@H](C)O/N=C1/[C@H]2CCn3c(=O)n(-c4ccccc4)c(=O)n3[C@H]2[C@H](O)[C@@H]2O[C@H]12	x	32%
C#CCOCCOCCOCCNc1nc(N2CCN(C(=O)[C@H](C)n3cc(CCCN=C(N)N)nn3)CC2)nc(N2CCN(C(=O)[C@H](CCCCN)n3cc(CCCC)nn3)CC2)n1	x	-9%
Cc1nc2sc3c(c2c2nc(-c4ccco4)nn12)CCCC3	x	24%
CCCCCCC(=O)Cc1cc(OC)c(OC)cc1C=C(C(=O)OCC)C(=O)OCC	x	4%
O=C(O)c1cccc(N2C(=O)CCC2=O)c1	x	-7%
CCOC(=O)N1CCN(CC(=O)c2c[nH]c3ccc(F)cc23)CC1	x	13%
Cc1cc(C)nc(N(C#N)S(=O)(=O)c2ccc(Br)cc2)n1	x	9%
C#CCOC(=O)CCC(=O)Nc1cc(OC)nc(OC)n1	x	5%
CCCCc1ccc(C2C(C#N)=C(N)SC(N)=C2C#N)s1	x	-7%
Cc1ccc(S(=O)(=O)N2CCOCC2)cc1C(=O)OCC(=O)N1c2ccccc2NC(=O)C1(C)C	x	-2%
COC(=O)c1c(NC(=O)CN2CCN(c3ccccc3OC)CC2)c2c(C)cccc2n1C	x	18%
O=C(CSc1nnc(-c2cccs2)n1-c1ccccc1)N1CCN(C(=O)c2ccco2)CC1	x	5%
CCC(CCC(=O)Nc1nncs1)C(=O)O (configuration not stated)	x	-2%
CCN(CC)c1ncnc2c1sc1nc(N3CCOCC3)c3c(c12)CCC3	x	4%
CN1CCc2c(sc3ncn4nc(-c5ccccc5O)nc4c23)C1	x	1%
Cc1c(C(=O)NCc2ccccc2Cl)oc2c1C(=O)CCC2	x	-6%

Going on with the list.
compound	E coli growth	Vif TR-FRET
COc1ccc(/C(O)=C2/C(=O)C(=O)N(CCCN(C)C)C2c2ccccc2)cc1Cl (configuration not stated)	x	-2%
CCOCCn1c(CN2CCC(C)CC2)nc2c1c(=O)n(C)c(=O)n2C	x	6%
CC1=C(C(=O)OCC(Br)(Br)Br)C(c2ccc(Br)cc2)NC(=O)N1CCCC(=O)O (configuration not stated)	x	11%
Cc1c(Cl)cccc1NC(=O)CN1C(=O)CSc2ncccc21	x	3%
COc1ccccc1C(=O)NN1C(=O)/C(=C/c2cccn2C)SC1=S	x	u
O=C(N/N=C/c1ccc(Cl)cc1Cl)C1CCN(c2ncc(C(F)(F)F)cc2Cl)CC1	x	0%
N#Cc1c(N)sc(=S)c2c1CCN(Cc1ccccc1)C2	x	9%
CC(C)Sc1nc(-c2cccs2)nc2c1c(=O)n(C)c(=O)n2C	x	-7%
COc1ccc(C2C=C(c3ccc(Cl)cc3)Nc3nc(NC(C)=O)nn32)cc1 (configuration not stated)	x	6%
CCCS(=O)(=O)Nc1ccc(-c2ccc3nnc(C)n3n2)cc1	x	-4%
Cc1cc(NS(=O)(=O)c2ccc(Nc3nc(-c4sc(C)nc4C)cs3)cc2)no1	x	u
CCc1nc(SCC(=O)N2CCC(Cc3ccccc3)CC2)c2c(=O)n(C)c(=O)n(C)c2n1	x	-10%
CC1CCCCN1C(=O)Cn1cc(/C=C2/C(=O)Nc3ccccc32)c2ccccc21 (configuration not stated)	x	14%
COCCn1c(=O)c2c(nc3n2CCN3c2ccc(C)cc2)n(C)c1=O	x	-3%
Cc1c(Nc2c3c(c(C#N)c4nc5ccccc5n24)CCC3)c(=O)n(-c2ccccc2)n1C	x	u
CC1(C)Cc2nc3nc(SCC(=O)NCc4ccccc4)n(-c4ccccc4)c(=O)c3cc2CO1	x	0%
NC(=O)C(CC(=O)O)NC(=O)[C@@H]1CCCCNc2c(I)cc([N+](=O)[O-])cc2C(=O)N[C@@H](CO)C(=O)NCC(=O)N1 (some centres not stated)	x	-6%
CCCSc1nc(C)nc2c1c(=O)n(C)c(=O)n2C	x	28%
Cc1cn(S(=O)(=O)c2ccc(Br)c3ccccc23)cn1	x	-22%
COc1ccc(OC)c(NC(=O)CSc2nc3ccccc3c3nc4ccccc4n23)c1	x	24%

For convenience, some entries already given:
compound	E coli growth	Vif TR-FRET
CCC(CCC(=O)Nc1nncs1)C(=O)O (configuration not stated)	x	-2%
CCN(CC)c1ncnc2c1sc1nc(N3CCOCC3)c3c(c12)CCC3	x	4%
CN1CCc2c(sc3ncn4nc(-c5ccccc5O)nc4c23)C1	x	1%
Cc1c(C(=O)NCc2ccccc2Cl)oc2c1C(=O)CCC2	x	-6%
COc1ccc(/C(O)=C2/C(=O)C(=O)N(CCCN(C)C)C2c2ccccc2)cc1Cl (configuration not stated)	x	-2%
CCOCCn1c(CN2CCC(C)CC2)nc2c1c(=O)n(C)c(=O)n2C	x	6%
CC1=C(C(=O)OCC(Br)(Br)Br)C(c2ccc(Br)cc2)NC(=O)N1CCCC(=O)O (configuration not stated)	x	11%
Cc1c(Cl)cccc1NC(=O)CN1C(=O)CSc2ncccc21	x	3%
COc1ccccc1C(=O)NN1C(=O)/C(=C/c2cccn2C)SC1=S	x	u
O=C(N/N=C/c1ccc(Cl)cc1Cl)C1CCN(c2ncc(C(F)(F)F)cc2Cl)CC1	x	0%
N#Cc1c(N)sc(=S)c2c1CCN(Cc1ccccc1)C2	x	9%
CC(C)Sc1nc(-c2cccs2)nc2c1c(=O)n(C)c(=O)n2C	x	-7%
COc1ccc(C2C=C(c3ccc(Cl)cc3)Nc3nc(NC(C)=O)nn32)cc1 (configuration not stated)	x	6%
CCCS(=O)(=O)Nc1ccc(-c2ccc3nnc(C)n3n2)cc1	x	-4%
Cc1cc(NS(=O)(=O)c2ccc(Nc3nc(-c4sc(C)nc4C)cs3)cc2)no1	x	u
CCc1nc(SCC(=O)N2CCC(Cc3ccccc3)CC2)c2c(=O)n(C)c(=O)n(C)c2n1	x	-10%
CC1CCCCN1C(=O)Cn1cc(/C=C2/C(=O)Nc3ccccc32)c2ccccc21 (configuration not stated)	x	14%
COCCn1c(=O)c2c(nc3n2CCN3c2ccc(C)cc2)n(C)c1=O	x	-3%
Cc1c(Nc2c3c(c(C#N)c4nc5ccccc5n24)CCC3)c(=O)n(-c2ccccc2)n1C	x	u
CC1(C)Cc2nc3nc(SCC(=O)NCc4ccccc4)n(-c4ccccc4)c(=O)c3cc2CO1	x	0%
NC(=O)C(CC(=O)O)NC(=O)[C@@H]1CCCCNc2c(I)cc([N+](=O)[O-])cc2C(=O)N[C@@H](CO)C(=O)NCC(=O)N1 (some centres not stated)	x	-6%

Next part:
compound	E coli growth	Vif TR-FRET
Cc1cc(C)cc(NC(=O)c2snc3c(=O)[nH]cnc23)c1	x	3%
Cc1ccc2oc3c(c(=O)c2c1)C(c1ccc(F)cc1)N(CCCN1CCOCC1)C3=O (configuration not stated)	x	8%
COC(=O)c1cc(-c2ccccc2)c2c(=O)n(C)c(=O)n(C)c2n1	x	-9%
Cc1ccc(CNC(=O)CSc2nc3ccccc3c3nc(C)nn23)cc1	x	-10%
COC/C=C/C1=CC2=CC(=O)C(C)(OC(=O)c3ccco3)C(=O)C2=CO1 (configuration not stated)	x	1.5µM*
COc1cccc(N2CCN(C(=O)CCn3c(=S)[nH]c4cc5c(cc4c3=O)OCO5)CC2)c1	x	-8%
CN(C)[C@@H]1C(=O)C(C(=O)NCN2CCCC2)=C(O)[C@@]2(O)C(=O)C3=C(O)c4c(O)cccc4[C@@](C)(O)C3CC12 (some centres not stated)	x	0.33µM*
CC1=C(C(=O)O)N2C(=O)[C@@H](NC(=O)[C@H](N)c3ccccc3)[C@H]2SC1	x	-5%
COC(=O)Nc1ccc(S(=O)(=O)Nc2ccc(C)cc2)cc1	x	5%
Cc1cc(NS(=O)(=O)c2ccc(NC(=O)c3cc4ccccc4o3)cc2)no1	x	-1%
Cc1ccc(C2/C(=C(\O)c3ccc4c(c3)OCCO4)C(=O)C(=O)N2CCCN(C)C)o1 (configuration not stated)	x	-13%
COc1ccc(C)cc1NC(=O)c1cc2cc3ccc(C)cc3nc2o1	x	1%
CCCCC(C)(O)C/C=C/[C@H]1[C@H](O)CC(=O)[C@@H]1CCCCCCC(=O)OC (some centres not stated)	x	15%
CC(C)(C)OC(=O)N[C@@H](Cc1ccccc1)c1nnc(S(=O)(=O)Cc2ccccc2)o1	x	-6%
CCC(C)NC(=O)c1c(N)n(/N=C/c2cccs2)c2nc3ccccc3nc12 (configuration not stated)	x	4%
COCCN1C(=O)N[C@@H](c2ccc(Br)cc2)C(C(C)=O)=C1C	x	u
CC1CCCN(c2nc3ccccc3nc2C(C#N)C(=O)OC2CCCCC2)C1 (configuration not stated)	x	0%
Cc1cc(C)n2cc(CSc3nnc(SCc4cn5c(C)cc(C)nc5n4)s3)nc2n1	x	0%
Cc1nn(S(=O)(=O)c2cccs2)c(C)c1Sc1ccccc1	x	-2%
